Compound activity: PubChem BioAssay, National Center for Advancing Translational Sciences (NCATS)
VDR inh – vitamin D3 receptor (human) inhibition; P11473; VDR-SRC2-3 peptide fluorescence polarization, 2 h; Potency, µM, for the others: max response, negative = inhibition, actives largely listed as inhibitors; 400,000 compounds, 0.93% hits; AID 504847; active = well fitted inhibition curve with a large enough effect; inconclusive = small, poorly fitted or top-dose-only effect, or another doubt; inactive = no such curve, though single readings can be large or run the other way; also: series mostly up to about 120 µM
Target sequence (P11473 whole entry, looked up): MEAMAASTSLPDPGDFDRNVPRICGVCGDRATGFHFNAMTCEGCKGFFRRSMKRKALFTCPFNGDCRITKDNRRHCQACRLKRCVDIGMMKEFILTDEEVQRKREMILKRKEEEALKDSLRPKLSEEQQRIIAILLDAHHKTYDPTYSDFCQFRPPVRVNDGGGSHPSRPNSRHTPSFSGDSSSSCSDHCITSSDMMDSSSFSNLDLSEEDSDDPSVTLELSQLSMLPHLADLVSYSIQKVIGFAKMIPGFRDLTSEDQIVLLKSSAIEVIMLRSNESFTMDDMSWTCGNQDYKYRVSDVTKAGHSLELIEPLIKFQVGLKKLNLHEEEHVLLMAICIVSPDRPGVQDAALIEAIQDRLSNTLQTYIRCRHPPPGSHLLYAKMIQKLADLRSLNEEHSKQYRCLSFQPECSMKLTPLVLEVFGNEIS
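FP read-out; VDR + SRC2-3 coactivator peptide; 23 nl compound by pintool; 2 h RT incubation; reagents held at 4 deg C, protected from light.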
The depositor's hits bear a star; & = joins results of further samples. % is scaled to controls: 0 for no effect and ±100 for the full control effect; potency is read from the fitted curve at half-maximal effect. Not all compounds are listed. The share of hits here may be higher or lower than overall.

Screening O=C(CCC(=O)N1CCOCC1)NCCc1ccc(Cl)cc1Cl returned VDR inh -10%.
Screening CN(C)Cc1c(C(=O)N/N=C/c2ccoc2)nnn1-c1nonc1N returned VDR inh -13%.
Screening C=CCn1cc(-c2ccccc2)cc(C#N)c1=O returned VDR inh -4%.
`O=C(CCNC(=O)c1ccccc1Cl)NCC1COc2ccccc2O1` (centres undefined) gave VDR inh 7%.
Screening O=C(CNC(=O)c1ccc(C(F)(F)F)cc1)NC1CC1 returned VDR inh -5%.
`O=C(CSc1nc(=O)[nH]c2c1CCCC2)NCc1ccccc1Cl` gave VDR inh -4%.
Screening O=S(=O)(Nc1nc2ccccc2s1)c1ccc(Cl)s1 returned VDR inh -9%.
Screening CCOc1ccc(N(C(C)=O)c2nc(C)cc(C)c2C#N)cc1 returned VDR inh -1%.
`O=C(Cc1cccc2ccccc12)N/N=C/c1ccc2cccc(O)c2n1` gave VDR inh 0%.
COc1ccc(NS(=O)(=O)c2cc(NC(=O)Cn3cnc4c3c(=O)n(C)c(=O)n4C)ccc2C)cc1 was read as VDR inh 12%.
`COc1ccc2[nH]c(C)c(CCNC(=S)Nc3cc(C)ccc3C)c2c1` gave VDR inh -6%.
Cc1ccc(NC(=S)N(CCC(C)C)C(C)c2ccncc2)c(Cl)c1 (centres undefined) was read as VDR inh -14%.
Screening CC(C)Cn1c(-c2cc(Br)ccc2F)nc2c1c(=O)[nH]c(=O)n2CC(C)C returned VDR inh 4%.
Screening Cc1cc(C)c(S(=O)(=O)N2C=CC(C(F)(F)F)=NCC2)c(C)c1 returned VDR inh 0%.
COc1ccc(-n2nc(C(=O)N3CCN(c4ccc(F)cc4)CC3)c3ccccc3c2=O)c(OC)c1 was read as VDR inh 17%.
Screening COc1ccc(-c2ccc(CCC(=O)O)n2CC(=O)Nc2cccc(Cl)c2C)cc1 returned VDR inh -2%.
COC(=O)c1ccc(NC(=O)c2ccccc2NS(C)(=O)=O)cc1 was read as VDR inh 7%.
For Cc1ccc(OCC(=O)c2c[nH]c3ccccc23)c([N+](=O)[O-])n1 the results were VDR inh -1%.
`CC(=O)NCCNc1ncncc1-c1ccccc1CN(C)C` gave VDR inh 0%.
For Cc1ccc(NC(=O)N2CCCC2C(=O)NCc2ccc3c(c2)OCO3)cc1 (centres undefined) the results were VDR inh -1%.

The final five compounds of the section before are carried over, then new ones follow:
Screening COc1ccc(-c2ccc(CCC(=O)O)n2CC(=O)Nc2cccc(Cl)c2C)cc1 returned VDR inh -2%.
COC(=O)c1ccc(NC(=O)c2ccccc2NS(C)(=O)=O)cc1 was read as VDR inh 7%.
For Cc1ccc(OCC(=O)c2c[nH]c3ccccc23)c([N+](=O)[O-])n1 the results were VDR inh -1%.
`CC(=O)NCCNc1ncncc1-c1ccccc1CN(C)C` gave VDR inh 0%.
For Cc1ccc(NC(=O)N2CCCC2C(=O)NCc2ccc3c(c2)OCO3)cc1 (centres undefined) the results were VDR inh -1%.
Cc1cccn2c(=O)c3cc(C(=O)NC4CCCCC4)sc3nc12 was read as VDR inh 8%.
O=c1cc(-c2ccccc2)ss1 was read as VDR inh inconclusive.
Screening Cc1cc(=O)n2[nH]cc(-c3ccccc3)c2n1 returned VDR inh -13%.
CCCN(CCC)CCCNC(=S)Nc1ccc2nc3n(c(=O)c2c1)CCCCC3 was read as VDR inh -10%.
Screening O=C(COC(=O)c1ccccc1-c1nc2ccccc2s1)NC1CCS(=O)(=O)C1 (centres undefined) returned VDR inh -6%.
CCOc1cc(N2CCOCC2)c(OCC)cc1NC(=O)COC(=O)COc1ccc(C#N)cc1 was read as VDR inh 9%.
For O=CN(CCN(C=O)CN1CCCCC1)CN1CCCCC1 the results were VDR inh 6%.
`CCOc1cc(/C=N/NC(=O)Cc2ccc(C(F)(F)F)cc2[N+](=O)[O-])c(Br)cc1OC` gave VDR inh 15%.
For COC(=O)CSc1nc2sccc2c(=O)n1-c1ccccc1 the results were VDR inh 2%.
Screening CN(Cc1ccccc1)C(=O)COC(=O)CN1C(=O)c2ccccc2C1=O returned VDR inh 3%.
`CCc1ccc(OCC(=O)Nc2cc(-c3ccc(C)cc3)no2)cc1` gave VDR inh 8%.
`O=C(OCC(=O)N1CCc2ccccc21)c1ccc(Cl)nc1` gave VDR inh 12%.
For CC12CC3CC(C)(C1)CC(CN1CCOCC1)(C3)C2 the results were VDR inh 4%.
`COc1cc(C2c3c(oc4ccccc4c3=O)C(=O)N2Cc2ccncc2)ccc1O` (centres undefined) gave VDR inh -14%.
CCOC(=O)N1CCN(C(=O)c2ccccc2NS(=O)(=O)c2ccc(C)cc2)CC1 was read as VDR inh 8%.
`CCC(C)n1c(=N)c(S(=O)(=O)c2ccc(C)cc2)cc2c(=O)n3cc(C)ccc3nc21` (centres undefined) gave VDR inh -9%.
CC(=O)c1ccc(N2CCN(S(=O)(=O)c3ccc(-c4cc(C(F)(F)F)on4)s3)CC2)cc1 was read as VDR inh 14%.
`O=[N+]([O-])c1ccc(Oc2cccc(Br)c2)c2ccncc12` gave VDR inh -7%.
Screening Nc1nc(NCCOCCO)nc(NCc2ccccc2)c1[N+](=O)[O-] returned VDR inh 7%.
Screening CC(C)COc1ccc(Br)cc1CNC(C)(C)C returned VDR inh -13%.
Screening CNS(=O)(=O)c1cccc(C(=O)OCC(=O)c2ccc3[nH]c(=O)[nH]c3c2)c1 returned VDR inh -10%.
`COc1ccc(C(=O)CC(SCC(NC(C)=O)C(=O)O)c2ccc(Cl)cc2)cc1OC` (centres undefined) gave VDR inh inconclusive.
Cc1cc(C)c(C(=O)CSc2nnc(C)c(=O)[nH]2)cc1C was read as VDR inh -2%.
COc1ccc(/C=N/NC(=O)c2ccn[nH]2)cc1COc1ccc(Cl)cc1Cl was read as VDR inh 10%.
Cc1cccc(NC(=O)C2CCCN(S(=O)(=O)c3c(C)nn(C)c3C)C2)c1 (centres undefined) was read as VDR inh 6%.
Screening CCN(CC)CCN(C(=O)c1ccc(Br)s1)c1nc2cc3c(cc2s1)OCCO3 returned VDR inh -15%.
Screening CCCOC(=O)CSc1nnc(-c2ccc(Cl)cc2Cl)o1 returned VDR inh -2%.
For CCN1CCCC1CNC(=O)c1cc2c(OC)cccc2[nH]1 (centres undefined) the results were VDR inh 17%.
Screening Cc1ccc(C)c(N=Nc2nc3ccccc3n2C)c1 returned VDR inh -7%.
For CC(=O)N1C[C@H]2CON(C)[C@H]2C[C@H]1c1ccccc1Br the results were VDR inh 10%.
`N#Cc1c(-c2ccccc2)nc(SCC(=O)Nc2nnc(C(F)(F)F)s2)[nH]c1=O` gave VDR inh inconclusive.
Screening CCCCC(OC(=O)c1ccco1)C(=O)NCc1ccc(C)cc1 (centres undefined) returned VDR inh 9%.
CCCCNC(=O)C(=O)NC(C)CCc1ccccc1 (centres undefined) was read as VDR inh -4%.
`O=C(O)c1ccc(Sc2nnnn2-c2ccccc2)c([N+](=O)[O-])c1` gave VDR inh -8%.
COc1ccc(C2N(c3ccc(Cl)cc3)N=C(C(C)=O)N(C)N2C(C)=O)cc1 (centres undefined) was read as VDR inh -14%.
`CCOC(=O)c1c(C)[nH]c(C(=O)/C(C#N)=C/c2ccc(OC(F)F)c(OC)c2)c1C` gave VDR inh inconclusive.
O=C(c1ccc(CNc2c(N3CCCC3)c(=O)c2=O)cc1)N1CCN(C2CCCCC2)CC1 was read as VDR inh 6%.
For COc1cccc(CNC(=O)CCC2CCCN(c3cc(C)nc(N4CCCC4)n3)C2)c1 (centres undefined) the results were VDR inh 19%.
For COc1cc(/C=C/C(=O)O)cc(S(=O)(=O)NCCCC(=O)O)c1OC the results were VDR inh 1%.
`CC1(c2cccc([N+](=O)[O-])c2)CC(C)(C)N(C(=O)c2ccccc2)c2ccccc21` (centres undefined) gave VDR inh -6%.
CCN(CC)S(=O)(=O)c1ccc(N/N=C(\C)c2ccncc2)nc1 was read as VDR inh -5%.
Screening CN(CCc1ccccc1)C(=O)c1cccc(NC(=O)Cc2ccc([N+](=O)[O-])cc2)c1 returned VDR inh -12%.
CC1=C(C(=O)NC(C)C)C2(CCC(C)CC2)OC1=O (centres undefined) was read as VDR inh -6%.
C=CCSc1nc2ccsc2c(=O)n1-c1cccnc1 was read as VDR inh -16%.
`CCCNC(=O)C1CCC(Cn2c(=O)c3sccc3n(CC(=O)NCc3cccc(OC)c3OC)c2=O)CC1` (centres undefined) gave VDR inh -6%.
CCN1CCN(Cc2ccc(NC(=O)CC3Oc4ccc(C)cc4NC3=O)cc2)CC1 (centres undefined) was read as VDR inh 13%.
Cc1ccc(-c2csc(NC(=O)CN3CCOCC3)n2)cc1 was read as VDR inh 15%.
`CC(C)NC(=O)CCn1nc(-c2ccc(Cl)cc2)c2ccccc2c1=O` gave VDR inh -11%.
For Cc1nn(Cc2ccc(Cl)c(Cl)c2)c(C)c1NC(=O)c1sc2ccccc2c1Cl the results were VDR inh -8%.
`Cn1c(CO)cnc1SCC(=O)c1ccc(Cl)cc1` gave VDR inh 4%.
`COc1ccc(NC(=O)C2CCCN(S(=O)(=O)c3c(C)[nH]c(=O)[nH]c3=O)C2)cc1OC` (centres undefined) gave VDR inh 3%&-10%.
For Cc1nn(C)c2c1c(C(F)(F)F)cc(=O)n2CC(=O)NCc1ccccc1Cl the results were VDR inh 10%.
Screening CCOC(=O)c1cc2cc(OC)ccc2nc1C returned VDR inh 4%.
For NC(=S)NN=C1Cc2cccc3cccc1c23 the results were VDR inh -8%.
O=C(Nc1ccc(Oc2cccc(C(F)(F)F)c2)nc1)c1cccs1 was read as VDR inh 8%.
For C=CCOc1c(Cl)cc(C(=S)N2CCCC2)cc1OCC the results were VDR inh -11%.
Screening CN(CC(=O)NCCc1ccccc1)S(=O)(=O)c1cnc[nH]1 returned VDR inh 0%.
Screening CCOC(=O)CNC(=O)c1cc2c(=O)oc3ccccc3c2s1 returned VDR inh 0%.
`CCN(CC)c1nc(NNC(=O)c2ccccc2)nc(N(CC)CC)n1` gave VDR inh 4%.
Cc1ccccc1OCCC(=O)OCC(=O)N1c2ccccc2NC(=O)C1(C)C was read as VDR inh 2%.

The last two records of the section above open the next one:
`CCN(CC)c1nc(NNC(=O)c2ccccc2)nc(N(CC)CC)n1` gave VDR inh 4%.
Cc1ccccc1OCCC(=O)OCC(=O)N1c2ccccc2NC(=O)C1(C)C was read as VDR inh 2%.
For CN(C)c1ccc(N=Nc2ccc(S(=O)(=O)O)cc2)c2ccccc12 the results were VDR inh -7%.
O=c1c2c(nc3cc(-c4ccc(F)cc4)[nH]n13)CCC2 was read as VDR inh 3%.
Screening C=CCc1c(C)nc(-c2ccccc2)nc1N/N=C(\C)c1ccc(N)cc1 returned VDR inh -3%.
`COc1cc(Nc2cccc[n+]2C)cc(OC)c1OC` gave VDR inh 4%.
For O=C(Nc1ccc2nc3n(c(=O)c2c1)CCCC3)c1cc([N+](=O)[O-])ccc1F the results were VDR inh inconclusive.
Screening O=C(Nc1cccc(Cl)c1)Nc1cccc(Cl)c1 returned VDR inh 4%.
Screening COc1ccccc1CNC(=O)Cn1c(=O)nc(-c2ccccc2F)c2cc(Cl)ccc21 returned VDR inh 10%.
For CCOc1ccc(S(=O)(=O)NCCC(=O)NC2=NCCS2)cc1 the results were VDR inh -12%.
`O=C(O)Cn1cc(C(=O)c2cccs2)c2ccccc21` gave VDR inh -1%.
`Cc1csc(NC(C)c2nc3cc(C(F)(F)F)ccc3n2CCCO)n1` (centres undefined) gave VDR inh 17%.
For NC(=O)C1CCN(C(=S)c2cccs2)CC1 the results were VDR inh -20%.
COc1ccc(CN2CCCC(C(=O)c3ccc(Cl)cc3)C2)cc1Cn1cccn1 (centres undefined) was read as VDR inh -5%.
CCCNC(=O)COc1ncnc2sc(C)c(C)c12 was read as VDR inh -3%.
CCOC(=O)Cc1nnc(NC(=O)C(CC)Sc2nnc3c4ccccc4n(C)c3n2)s1 (centres undefined) was read as VDR inh -4%.
Screening O=C(CSC(=S)N1CCSCC1)c1ccc(Cl)cc1 returned VDR inh -23%.
Screening c1cncc(-c2nc3c(ccc4ccccc43)[nH]2)c1 returned VDR inh -5%.
`O=C1C2CC=CCC2C(=O)N1CC(=O)N(Cc1ccccc1)C1CCS(=O)(=O)C1` (centres undefined) gave VDR inh -6%.
CC(C)C(=O)Nc1ccc(NC(=O)c2ccccc2Cl)nc1 was read as VDR inh -4%.
For CCN(CC)CCOC(=O)c1ccc(Cl)cc1 the results were VDR inh -2%.
For CCc1ccc(OCC(=O)N(Cc2cccs2)C2CCS(=O)(=O)C2)cc1 (centres undefined) the results were VDR inh 11%.
O=C(CNC(=O)c1ccc(Cl)cc1)c1ccc(Cl)cc1 was read as VDR inh -2%.
Screening CCc1ccc(Sc2cc(C(=O)NCc3ccccc3OC)c3ccccc3n2)cc1 returned VDR inh 9%.
`C[C@H]1CN(S(=O)(=O)C(C)(C)C)[C@H](CCO)/C1=C\c1ccccc1` gave VDR inh -12%.
For O=C(Cn1cnc2c(cnn2-c2ccccc2)c1=O)N1CCCc2ccccc21 the results were VDR inh -9%.
Screening CCOc1ccc(NC(=O)Cn2cc(C(=O)c3ccc(CC)cc3)c(=O)c3cc(C)ccc32)cc1 returned VDR inh -4%.
`O=c1[nH]c(-c2ccccn2)nc(C(F)(F)F)c1Br` gave VDR inh -4%.
Cc1cc(NC(=O)CSc2nc3c(C)c(C)ccc3cc2C)no1 was read as VDR inh 7%.
For COc1ccc(-c2nc3ccc(C(=O)NCc4ccccc4)cc3nc2-c2ccc(OC)cc2)cc1 the results were VDR inh 4%.
Screening C=C(C)CN=C1NN=C(c2cc(C)n(-c3ccc(C)cc3)c2C)CS1 returned VDR inh -14%.

Reprinted at random: 4 compounds from above
Cc1cc(NC(=O)CSc2nc3c(C)c(C)ccc3cc2C)no1 was read as VDR inh 7%.
`C[C@H]1CN(S(=O)(=O)C(C)(C)C)[C@H](CCO)/C1=C\c1ccccc1` gave VDR inh -12%.
O=C(CNC(=O)c1ccc(Cl)cc1)c1ccc(Cl)cc1 was read as VDR inh -2%.
`O=c1[nH]c(-c2ccccn2)nc(C(F)(F)F)c1Br` gave VDR inh -4%.
